# Bioassay records (PubChem)
# BJeLR lethal: BJeLR cell viability loss; AID 1554; BJeLR (HRASV12) viability, CellTiter-Glo ATP luminescence, 48 h; reference of the scale not given here; inhibition, % (concentration not given with the values); hit rate 0.17% among 300,000;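 active = replicate mean above 50%; inconclusive = above 50% but judged a plate artefact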;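 note: 50 nL library stock added to about 25 µL; numbers are from one replicate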
# RN4220 kill: kills Staphylococcus aureus RN4220; S. aureus RN4220 growth, OD600, 16 h; hit rate 0.33% among 330,000; inhibition, % (concentration not given with the values);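 active = z-score of -3 or lower and OD600 up to 0.18 on both plates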;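 note: plate controls were untreated cells for no effect and reference antibiotic for full effect; stock transfer was 100 nL into about 80 µL; one replicate is shown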
# Sa ugtP lethal: kills S. aureus RN4220 lacking UgtP; S. aureus RN4220 ugtP deletion, OD600 growth, 16 h; some inactives read as strong as hits; growth inhibition, % (no concentration beside the values); hit rate 0.54% among 330,000;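 active = z-score under -3 and OD600 up to 0.15 on both plates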;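 note: plate controls were untreated wells for no effect and antibiotic for full effect; wells of about 80 µL received 100 nL stock; the first replicate is given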
# Mtb hypoxia inh: reduces hypoxia-regulated biosensor signal in M. tuberculosis | M. tuberculosis hypoxia-regulated fluorescent reporter, fluorescence | fluorescence inhibition, % (no concentration beside the values) | hit rate 0.1% among 300,000;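 active = 35 to 45% if threefold the growth effect, above 45% if 1.5-fold the growth effect; inactive = the rest, general growth blockers included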;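 note: wells of about 50 µL received 100 nL stock; 0% = vehicle wells and 100% = reference inhibitor wells; whole bacteria with a GFP reporter of the hypoxia response; strong numbers were not always called active; many hits fall short of the cut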
# PrP 5UTR inh: inhibition of PrP 5' UTR reporter expression; cell-based PrP 5' UTR mRNA reporter, plate reader; inhibition, % (test concentration not listed); hit rate 0.35% among 340,000;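 active = every replicate at 50% or more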;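 note: 0 = median of the neutral control wells; tested in H4 reporter cells; numbers are from one replicate; inactives centre near -14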
# Autofluor counter: flagged as autofluorescent in microsphere protease counterscreen | compound autofluorescence counterscreen, microsphere flow cytometry; hits give high values | hit rate 3.1% among 360,000 | fluorescence intensity (test concentration not listed);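 active = at least 3 SD above the mean of all compounds, about 16000 in these data; inconclusive = too few beads counted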;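 note: 100 nL of 1 mM stock went into each well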
# Mtb hypoxia inh growth: recorded beside Mtb hypoxia inh, whose call it bears; growth inhibition, %; measured here: M. tuberculosis growth (absorbance);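 0% = vehicle and 100% = reference antibiotic; read after six days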
# * = called active by the depositor; u = inconclusive; x = not tested or not shown.
# Value order: BJeLR lethal	RN4220 kill	Sa ugtP lethal	Mtb hypoxia inh	Mtb hypoxia inh growth	PrP 5UTR inh	Autofluor counter
CCCC[C@@H]1CNC(=O)C(=O)N1CCCc1cc(OC)c(OC)c(OC)c1
 : 8	x	x	x	x	-7	4019
O=C(COC(=O)Cn1cnc2ccccc21)NCCC1=CCCCC1
 : -2	-0.9	-4	x	x	-3	2735
Cc1ccc(S(=O)(=O)N2CCCC2CNC(=O)C(=O)NCCN2CCOCC2)cc1 (stereo unspecified)
 : -3	0.4	1	-6	4	-30	x
CC(C)CNC(=O)COc1ccc2c3c(c(=O)oc2c1)CCC3
 : -6	4.0	-3	2	6	-20	5766
COc1ccc(-c2cc(CS(=O)(=O)c3ccccc3)on2)cc1
 : -2	8.1	14	7	9	-6	4428
O=C(O)c1ccc(/C=N/N2CCN(Cc3cccc4ccccc34)CC2)cc1
 : -2	x	x	x	x	-23	5030
CCCn1c(N)c(C(=O)COC(=O)COc2ccc(Cl)c(C)c2)c(=O)n(C)c1=O
 : x	-0.5	-2	2	5	-20	u
Cc1ccc(N(CC(O)COCc2ccco2)S(=O)(=O)c2ccc(C)cc2)cc1 (stereo unspecified)
 : -1	7.0	-2	5	11	-5	10506
CN(C)C(CNC(=O)c1ccc(-c2ccccc2)cc1)c1ccccc1 (stereo unspecified)
 : 2	-3.0	12	3	12	-21	3015
CC(=O)c1ccc(-n2cc(-c3ccc(C(C)(C)C)cc3)[n+]3c2SCCC3)cc1
 : 12	4.0	-1	8	17	-9	4878
O=[N+]([O-])c1ccc2c(c1)C(O)n1nc(-c3ccc(Cl)cc3Cl)nc1S2 (stereo unspecified)
 : -2	6.0	-9	-3	4	-2	3244
COc1ccc(Cn2c(CO)cnc2SCC(=O)Nc2cc(C)on2)cc1
 : 1	1.5	1	11	5	-33	5994
O=C(CCS(=O)(=O)c1ccc(Cl)cc1)Nc1nnc(-c2cccs2)o1
 : 4	3.3	10	12	10	-24	u
COc1ccccc1N1C(=O)c2ccccc2NC1c1cc(OC)c(OC)c(OC)c1 (stereo unspecified)
 : 19	2.7	3	8	10	-27	4315
CCCn1nc([N+](=O)[O-])c(C(C#N)c2nc3ccccc3o2)c(Cl)c1=O (stereo unspecified)
 : -1	4.7	6	22	-2	-9	2461
CN1C(=O)/C(=C\c2ccc(N3CCCCC3)o2)C(=O)NC1=S
 : 0	4.1	0	x	x	-50	10334
CC(NC(=O)c1ccccc1)c1nnc(SCc2nc3ccccc3c(=O)[nH]2)n1C (stereo unspecified)
 : -2	2.2	-4	4	4	-23	4801
Cc1cc(/C=N\NC(=O)COc2cccc3cccnc23)c(C)n1-c1ccccc1
 : 0	x	x	x	x	-19	2790
CCN(CC)CCCC(C)NC(=O)c1ccc(C(F)(F)F)cc1 (stereo unspecified)
 : 2	11	18	7	9	-4	3301
CCc1nnc(NC(=O)CCn2cnc3ccccc3c2=O)s1
 : -4	7.9	9	12	0	-16	3810
CC(C)N1CCN(Cc2cc3ccccc3[nH]2)CC1CCO (stereo unspecified)
 : 1	4.6	10	6	0	-28	4050
Cc1ccc(S(=O)(=O)CNC(=S)c2cccc(C)c2)cc1
 : 0	22	45	0	8	-28	10274
COCCN1C(=O)c2cc(C(=O)Nc3ccc(OC)c(OC)c3)ccc2C1Nc1ccc(OC)c(OC)c1 (stereo unspecified)
 : -15	1.3	8	0	5	-9	2332
COc1ccc(-c2ccc(/C=C(\NC(=O)c3ccccc3)C(=O)N3CCOCC3)o2)cc1
 : 4	-1.9	6	0	-4	-11	4493
COc1ccc(-c2cc(C(=O)OCC(=O)NC3CC3)c3ccccc3n2)cc1OC
 : x	4.2	3	7	15	-19	3777
CC(NC(=O)c1ccccc1)C(=O)OCC(=O)Nc1cccc(S(=O)(=O)N2CCCC2)c1 (stereo unspecified)
 : x	0.7	-1	-4	5	-24	3501
Clc1ccc(Oc2nc3ccccc3n3cccc23)cc1
 : -8	1.9	16	8	5	-12	2970
Cc1c(NC(=O)CSc2nc(N)cc(N)n2)c(=O)n(-c2ccccc2)n1C
 : x	0.5	4	5	-11	-36	3863
O=C(NC1CCCN(Cc2ccc(Cl)cc2)C1)c1ccccc1-c1ncc[nH]1 (stereo unspecified)
 : 7	4.2	4	8	8	-4	7536
CCn1c(NC(C)=O)nc2ccccc21
 : -4	-1.2	-10	-12	-6	-26	3480
COc1cccc(C(=O)NN=C(c2ccccc2)c2ccccn2)c1
 : x	0.0	-5	5	11	x	x
Cc1ccc(NC(=O)CNNC(=O)c2cccc([N+](=O)[O-])c2)cc1[N+](=O)[O-]
 : x	3.8	3	14	2	-36	4006
Nc1nc(CN2CCN(c3ccccn3)CC2)nc(Nc2ccc(Cl)cc2)n1
 : -3	1.8	3	-7	10	-5	3876
CSC1=C(C#N)C(c2ccccc2)C(C(C)=O)=C(C)N1 (stereo unspecified)
 : 4	5.0	6	1	2	-17	2420
O=C(CSc1ccc2ccccc2n1)c1ccccc1
 : 6	16	16	9	0	-56	4261
Nc1c(S(=O)(=O)c2ccccc2)c2nc3ccccc3nc2n1/N=C/c1cccc(O)c1
 : -3	x	x	x	x	-13	4797
COc1ccccc1C(=O)Nn1cnnc1
 : -13	5.8	16	6	-6	-15	4235
CCN1CCCC1CNCc1ccc(OCc2ccc(Cl)nc2)c(OC)c1 (stereo unspecified)
 : -5	2.3	2	5	-2	-22	5929
Cn1c(N)c(C(=O)CN2CCc3ccccc3C2)c(=O)n(C)c1=O
 : 0	6.2	10	5	8	-43	4417
O=C(CSCc1c(Cl)cccc1Cl)NCc1ccccn1
 : 6	1.2	3	15	10	-3	4131
Cc1ccc(-c2nnc(N3CCN(C(=O)CSc4ncn[nH]4)CC3)c3ccccc23)cc1
 : x	-6.5	-8	x	x	0	3463
O=C(NN=Cc1ccco1)c1cccc(S(=O)(=O)Nc2ccccc2Cl)c1
 : x	9.0	-1	2	2	x	x
COc1ccc(/C=C(\C#N)C(=O)OCC(=O)NC(C)c2ccccc2)cc1 (stereo unspecified)
 : -1	0.2	8	10	6	-11	2586
COc1ccc2ccccc2c1C=Nn1cnnc1
 : x	0.4	0	-1	-7	x	x
Cc1ccc(C=Nc2ccccc2C(=O)Nc2ccccc2)cc1
 : -23	3.0	-2	-8	1	-21	2733
N#C/C(=C(/O)c1ccco1)c1nc2ccccc2[nH]1
 : -5	4.7	-5	-4	10	-39	3689
COc1ccc2c(c1)[nH]c1c(=O)n(CCN3CCOCC3)cnc12
 : 15	4.8	2	3	17	-22	5347
Cc1cc(NC(=O)Cn2nnc(-c3ccccc3N)n2)no1
 : 2	2.8	0	5	0	-27	2590
Cn1c(C(=O)NCc2ccccn2)cc2c(=O)n3ccccc3nc21
 : -14	3.7	6	-7	2	-62	12344
Cc1cccc(C)c1OCc1cc(C(=O)N(C)Cc2nc3ccccc3[nH]2)no1
 : -2	-1.3	-4	-1	14	-4	4297
C=CCn1c(-c2csc(-c3ccccc3)n2)n[nH]c1=S
 : -7	-9.9	2	16	3	-26	3114
CCN(C(=O)/C=C/c1cc(OC)c(OC)c(OC)c1)C1CCCCC1
 : -9	3.5	0	7	6	-10	8398
COc1ccccc1NC(=O)CS(=O)(=O)c1cccc2nsnc12
 : -2	3.3	1	x	x	-10	4586
Cc1cc(C)n2nc(C(=O)NCc3cccc(C(F)(F)F)c3)nc2n1
 : 1	18	9	-5	-2	-4	4548
Cc1noc(COc2ccccc2OCC(N)=O)n1
 : -8	1.3	2	7	-6	x	5860
O=C(/C=C/c1ccc(Cl)cc1)Nc1ccccc1N1CCOCC1
 : -24	3.1	4	9	2	-11	2087
COC(=O)c1sccc1NC(=O)CNC(=O)c1ccccc1
 : 10	5.5	4	17	14	-15	3872
Cc1ccc(/C=C/c2nc3ccccc3c(=O)[nH]2)cc1
 : 9	-1.0	2	2	10	45	4195
Cc1oc(-c2ccc(Cl)cc2)nc1CS(=O)CC(=O)NC1CC1 (stereo unspecified)
 : -11	3.2	6	-3	0	-16	4220
CCOC(=O)c1sc2nc(C)nc(NCc3ccc(Cl)cc3)c2c1C
 : 13	-6.8	13	11	13	-14	3856

# Complete entries from above. Order of values: BJeLR lethal, RN4220 kill, Sa ugtP lethal, Mtb hypoxia inh, Mtb hypoxia inh growth, PrP 5UTR inh, Autofluor counter
# Results for COc1ccccc1NC(=O)CS(=O)(=O)c1cccc2nsnc12 : -2, 3.3, 1, x, x, -10, 4586
# Results for COc1ccc2ccccc2c1C=Nn1cnnc1 : x, 0.4, 0, -1, -7, x, x
# Results for Cc1ccc(NC(=O)CNNC(=O)c2cccc([N+](=O)[O-])c2)cc1[N+](=O)[O-] : x, 3.8, 3, 14, 2, -36, 4006
# Results for O=C(CSCc1c(Cl)cccc1Cl)NCc1ccccn1 : 6, 1.2, 3, 15, 10, -3, 4131
# Results for Nc1nc(CN2CCN(c3ccccn3)CC2)nc(Nc2ccc(Cl)cc2)n1 : -3, 1.8, 3, -7, 10, -5, 3876

# Next results.
# Value order: BJeLR lethal	RN4220 kill	Sa ugtP lethal	Mtb hypoxia inh	Mtb hypoxia inh growth	PrP 5UTR inh	Autofluor counter
N#CC1(c2ccccc2)CCCN1C(=O)c1ccc(Br)cc1 (stereo unspecified)
 : 19	7.6	2	-5	14	-40	11402
O=C(Nc1ccc(F)cc1)N1CCCN(c2nccc(C(F)(F)F)n2)CC1
 : -7	5.2	8	7	9	-15	4215
Cc1ccc(S(=O)(=O)N2Cc3ccccc3CC2C(=O)Nn2cnnc2)cc1 (stereo unspecified)
 : 5	7.0	-5	-6	5	-1	5600
Cc1cnc(NC(=O)CSc2nnc(-c3ccccc3)o2)s1
 : 2	4.2	-6	12	8	-66	9157
O=C1CCN(C(=O)C(Cl)Cl)N1
 : -3	1.7	0	0	8	-14	2479
COc1ccc(Nc2nc(-c3ccccc3F)nc3ccccc23)cc1OC
 : -14	-0.3	-2	0	4	12	4256
CC(C)(C)NC(=O)C(=O)NNC(=O)c1cccc(F)c1
 : 4	1.2	3	0	15	13	4192
c1ccc(COn2nnc3ccccc32)c(COn2nnc3ccccc32)c1
 : 1	12	-10	5	19	-18	8439
N#CCCN(CCC#N)S(=O)(=O)c1ccc(C(=O)Nc2nnc(C3=COCCO3)o2)cc1
 : 13	7.5	1	1	-2	-16	2035
COc1ccc(C(=O)CN2CCN(c3ccc(F)cc3)CC2)cc1
 : -3	4.9	3	3	-1	-38	3140
Cc1cccc(Nc2nc(N)nc(CN3CCC(C(N)=O)CC3)n2)c1C
 : 2	-14	-7	17	11	6	3402
O=C(NCCCn1ccnc1)/C(=C\c1cccs1)NC(=O)c1cccs1
 : 10	2.9	11	5	2	-19	3236
COC(=O)c1oc2ccccc2c1NC(=O)CN1CCCC1
 : 1	4.9	0	10	3	-24	8844
COc1ccc(Nc2cc(C(=O)NCCCN3CCN(C)CC3)c3ccccc3n2)cc1
 : 5	-1.0	-2	x	x	2	3991
c1ccc2[nH]c(CSc3nccs3)nc2c1
 : -5	5.3	2	8	12	-14	u
O=C(NCC(=O)N(c1cccc(F)c1)C(C(=O)NC1CCCC1)c1ccncc1)c1ccco1 (stereo unspecified)
 : 0	2.1	3	0	8	6	5775
C=CCN(CC(=NO)c1sc(C(=O)OCC)nc1C)c1cccc(Br)c1
 : x	-5.9	70	6	7	x	x
O=[N+]([O-])c1cccc(/C=C/c2ccncc2)c1
 : 13	5.6	3	14	7	-25	x
CCOP(=O)(OCC)C(NC(=O)/C=C/c1ccc(OC)cc1)c1ccccc1 (stereo unspecified)
 : 0	1.7	28	5	7	-12	3170
S=P(N1CCCCCC1)(N1CC1)N1CC1
 : x	3.3	-2	4	2	-16	4365
O=P(Nc1ccccc1Cl)(c1ccccc1)c1nc2c(s1)CCCC2 (stereo unspecified)
 : 2	5.4	7	6	13	-9	17289*
Cc1cc(Nc2ccccc2)nc(N2CCOCC2)n1
 : 1	2.8	-4	x	x	-6	4787
CC(C)COc1ccc(/C(=N/O)c2ccccc2)cc1
 : -2	x	x	x	x	-43	7133
CC(=O)Nc1ccc(S(=O)(=O)N2CCC(C(=O)Nc3nccs3)CC2)cc1
 : 4	-0.1	1	11	-1	-3	5701
Cc1cc(C(=O)COC(=O)C2=NNC(=O)CC2)c(C)n1-c1cccc(C(F)(F)F)c1
 : -1	5.0	2	13	7	-13	17667*
